Assay outcomes from PubChem BioAssay.
Rce1 inh = blocks yeast Ras-converting enzyme; calls only; AID 2563; yeast membranes, quenched prenylated peptide cleavage fluorescence; 290,000 compounds, 0.27% hits; Q03530;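 active = fall in fluorescence gain of 50% or more versus controls, with final raw signal at or below 3038400; inconclusive = same 50% fall but final raw signal above 3038400; inactive = fall in fluorescence gain under 50%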;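 also: plate controls were neutral control wells for no effect and wells lacking membranes for full effect; tested at 10 µM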
Target sequence (Q03530 whole entry, looked up): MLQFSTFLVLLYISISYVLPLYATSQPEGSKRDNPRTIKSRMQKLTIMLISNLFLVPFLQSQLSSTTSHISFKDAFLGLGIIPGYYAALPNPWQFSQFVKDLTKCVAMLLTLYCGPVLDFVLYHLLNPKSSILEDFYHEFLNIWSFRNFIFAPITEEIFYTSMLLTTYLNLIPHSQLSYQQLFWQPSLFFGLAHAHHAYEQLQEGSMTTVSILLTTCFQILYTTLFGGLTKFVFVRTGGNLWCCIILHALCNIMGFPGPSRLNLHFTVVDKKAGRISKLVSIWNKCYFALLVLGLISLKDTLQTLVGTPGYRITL
Yeast UUG start = modulators of start codon recognition fidelity in yeast | S. cerevisiae UUG-firefly luciferase reporter, luminescence/redox ratio | activity score, % at 18.7 µM | 350,000 compounds, 0.13% hits | AID 602363;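 active = replicate mean at a twofold rise or more, about +100% in these data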;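 also: firefly luciferase made from a UUG start codon reports start codon fidelity; reporter light over untreated wells divided by growth signal over untreated wells; some hits fall short of that in this replicate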
MT1-MMP act inh = blocks activation of human MT1-MMP; GFP/RFP ratio change, % at 20 µM; 360,000 compounds, 0.061% hits; P50281; HT1080 RFP-PRO-GFP cells, GFP/RFP ratio fluorescence, overnight; percent of plate control window, DMSO zero;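 active = GFP/RFP ratio change of at least 30% with cell ATP level not reduced by more than half and red fluorescence within 50% of control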; also: strong numbers were not always called active
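Compound: 20 µM single dose, 1% DMSO / System: HT1080 RFP-PRO-GFP cells / Controls: DMSO and RFP-L50D-GFP cell wells / Read-out basis: GFP/RFP fluorescence ratio / Schedule: overnight compound exposure at 37 °C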
eIF4H inh = inhibitors of RNA binding by human eIF4H | Q15056 | eIF4H fluorescence polarization binding assay | 290,000 compounds, 0.94% hits | inhibition, % at 35 µM;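 active = 50% or more with normal probe brightness, or confirmed in later tests; inconclusive = above 50% with abnormal brightness, or retests that disagree; inactive = below 50% or failed in later tests; about a fifth of its hits are not listed in these tables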;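 also: calls also rest on retests at 20 µM and on dose response follow-up; 0% = protein and probe with vehicle and 100% = probe without protein; strong numbers were not always called active; many hits fall short of the cut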
PABP polyA inh = PABP-poly(A) binding inhibition. P11940. PABP-poly(A) RNA binding, fluorescence polarization. inhibition, % at 35 µM. 290,000 compounds, 1% hits. AID 2014;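 active = 50% or more with normal probe brightness, or confirmed in later tests; inconclusive = above 50% with abnormal brightness, or retests that disagree; inactive = below 50% or failed in later tests; about a fifth of its hits are not listed in these tables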;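 also: calls also rest on retests at 20 µM and on dose response follow-up; controls were probe without protein and protein plus probe with vehicle; some compounds called inactive have numbers as strong as hits; many hits fall short of the cut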
CSC inhib = blocks cancer stem cells | 300,000 compounds, 1.1% hits | inhibition, % at 7.5 µM | cancer stem cell-like cells viability, luminescence;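 active = mean at 75% or more and at least half the replicates too; inconclusive = mean and replicates disagree; tested in HMLE shEcad cells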;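 also: 0% = median of negative and 100% = median of positive control wells; the first replicate is given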
Env fusion inh = HIV envelope-mediated fusion inhibition | AID 651610 | inhibition, % at 12.3 µM | HeLa-JRFL Env/CEM21 cell fusion, luciferase | 360,000 compounds, 1.1% hits;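 active = mean replicate inhibition score of at least 50 and every replicate individually at or above 50; inconclusive = only one of the two criteria met; inactive = mean below 50 and not all replicates reaching 50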;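 also: 0% = plate neutral controls and 100% = maraviroc near 300 nM; one replicate is shown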
eIF4H inh retest = second read-out of eIF4H inh, no call of its own (marks repeat the call); inhibition, %; compound at 20 µM; confirmation average;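 mean of two retest wells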
PABP polyA inh retest = further read-out of PABP polyA inh, marked with its call; inhibition, %; compound at 20 µM; confirmation repeats;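 mean of two retest wells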
MT1-MMP act inh RFP = also measured in MT1-MMP act inh; calls as there; RFP signal change, %; measured here: RFP expression control read;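 0 = vehicle wells; hits needed this value within 50% of zero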
* marks the source's active call; other numbers are inactive results; i = inactive; u = inconclusive; x = not tested or not shown; & = joins results of further samples; [ ] = another dose, or the depositor's remark. The order is random; 3% or so of the library scored in one or more.

SMILES	Rce1 inh	Yeast UUG start	MT1-MMP act inh	MT1-MMP act inh RFP	eIF4H inh	PABP polyA inh	CSC inhib	Env fusion inh	others
Cc1ccc(CNCC(O)(c2ccc(F)cc2)c2ccc(F)cc2)cc1	i	8	-2	-3	-17	-9	16	-28
C/C(=N\NC(=O)C(N)=O)c1ccc(Br)cc1	i	x	-2	2	36	5	-8	5
Cc1ccc(NC(=O)C2CC(=O)Nc3ncnn32)c(C)c1 (centres undefined)	i	-13	1	5	-7	-2	-5	-1
Cc1[nH]c2ccccc2c1SCCNC(=O)c1ccc(S(=O)(=O)N2CCCC2)cc1	i	2	4	-2	-7	18	-5	i
CCCC(=O)Nc1ccc(C(=O)Nc2ccc([N+](=O)[O-])cc2OC)cc1	i	x	2	-1	-4	15	11	-11
NS(=O)(=O)c1ccc(N=NN2CCCCC2)cc1	i	x	0	-6	-9	1	x	2
Cc1ccc(C(=O)NCCN2C3=NC[C@H](C(C)C)N3C[C@H]2Cc2ccc(O)cc2)cc1Br	i	3	-4	4	4	-11	14	-62
O=[N+]([O-])c1ccc(Cl)c(S(=O)(=O)Nc2cccc(-c3ccc(N4CCCC4)nn3)c2)c1	i	6	-2	-6	x	x	-13	-38
CCN1CCN(S(=O)(=O)c2cc(OC)c(Cl)cc2OC)CC1	i	-13	2	7	-3	-1	6	x
CC/C(=C\C(=O)c1ccncc1)Nc1ccc(Br)cc1	i	x	1	5	-1	4	26	x
Nc1c2nc(-c3ccccc3Cl)[nH]c(=O)c2nc(=O)n1-c1ccccc1	i	x	-2	-4	2	14	x	1
COc1ccc(C(=O)N/N=C/c2ccc(OC)c(CSc3ccccn3)c2)cc1	x	x	4	4	-1	-14	9	9
COc1ccc(NC(=O)N(C)C[C@H]2Oc3c(NS(=O)(=O)c4cn(C)cn4)cccc3C(=O)N([C@H](C)CO)C[C@@H]2C)cc1	x	-5&-11	3	7	x	x	x	8[16.7 µM]
O=C(Nc1cccc(F)c1)C1CC(=O)N(c2ccc(Cl)cc2)C1 (centres undefined)	i	-9	2	-1	-1	4	-1	21
Cc1ccc(C)c(N2CCN(C(=O)Nc3ccc4c(c3)N(C)C(=O)CS4)CC2)c1	i	x	-3	-20	-3	-1	x	31
O=C1OC(c2ccccc2)=N/C1=C\C=C\c1ccccc1[N+](=O)[O-]	i	x	1	3	-5	35	-7	-4
Cc1ccc(C)c(N2CCN(C(=O)Cn3c(=O)[nH]c4ccsc4c3=O)CC2)c1	i	x	3	1	-5	-6	-9	22
COc1ccccc1CNC(=O)COC(=O)Cc1ccsc1	i	x	-3	2	-24	-2	x	3
N#C/C(=C\c1ccccc1)C(=O)OCC(=O)N1CCCC1	i	x	-5	-2	-11	19	x	-1
O=C(NC1CC1)C1=C[C@@H](c2coc3ccccc3c2=O)C[C@@H](OCCCCO)O1	i	4&-2	9	4	5	3	-11	3[16.7 µM]
N=c1n(CC(=O)c2ccc([N+](=O)[O-])cc2)c2ccccc2n1Cc1ccc(Cl)cc1	i	x	-84	-1	0	-6	6	x
O=C(O)Cc1sc(Nc2ccc(Cl)cc2)nc1-c1cccs1	i	x	x	x	u	12	x	-4
Cc1cc(C2=NNC(=NC3CC3)SC2)c(C)n1-c1ccccc1	i	x	-2	2	5	-13	x	40
O=C(O)c1ccccc1C(=O)Nc1ccc(-n2nccc2C(F)(F)F)cc1	i	x	1	2	5	7	-10	0

3 entries out of the list, arranged by heavy-atom count, lowest first.
SMILES	Rce1 inh	Yeast UUG start	MT1-MMP act inh	MT1-MMP act inh RFP	eIF4H inh	PABP polyA inh	CSC inhib	Env fusion inh	others
NS(=O)(=O)c1ccc(N=NN2CCCCC2)cc1	i	x	0	-6	-9	1	x	2
O=C(O)Cc1sc(Nc2ccc(Cl)cc2)nc1-c1cccs1	i	x	x	x	u	12	x	-4
Nc1c2nc(-c3ccccc3Cl)[nH]c(=O)c2nc(=O)n1-c1ccccc1	i	x	-2	-4	2	14	x	1

Additional structures follow.
SMILES	Rce1 inh	Yeast UUG start	MT1-MMP act inh	MT1-MMP act inh RFP	eIF4H inh	PABP polyA inh	CSC inhib	Env fusion inh	others
COc1ccc(/C=N/N2CCN(C)CC2)cc1O	i	x	1	4	5	7	-3	x
COc1cc(-c2nnc3sc(-c4cccs4)nn23)cc(OC)c1OC	i	-18	4	-3	-11	10	22	-18
CN1CCN(c2nc3c(c(=O)n(C)c(=O)n3C)n2CCSc2nc3ccccc3s2)CC1	x	6	-8	-2	-1	5	-16	x
O=C(NC(NC(=O)c1ccccc1)c1ccccc1)c1ccccc1	i	-13	1	3	2	-2	-8	x
O=C(Nc1ccccc1F)c1coc(=O)c(Br)c1	i	x	-12	4	0	-6	5	-3
CCn1c(Oc2ccc(F)cc2)nc2c1c(=O)n(C)c(=O)n2C	i	1	-12	-13	-6	-4	-8	24
O=C(CN(Cc1cccs1)S(=O)(=O)c1ccc(S(=O)(=O)NC2CCCCC2)cc1)Nc1ccccc1	i	6	-19	-24	8	2	58	41
COc1ccc(C(=O)CSc2nnc(CNC(=O)c3ccc(OC)cc3)n2C)cc1	i	-6	7	-2	1	-2	0	x
COc1cc(/C=N/NC(=O)C(=O)Nc2ccccn2)ccc1O	i	-7	5	4	0	53	-8	-5	eIF4H inh retest=4;PABP polyA inh retest=5
COc1ccc(Nc2ncnc3sccc23)cc1OC	i	-4	-1	2	-2	9	-4	-2
CCN(CC)CC(=O)Nn1c(C)nc2c(ncn2-c2ccccc2)c1=O	i	x	0	5	1	-3	5	11
COc1ccc(N2CC(C(=O)Nc3nnc(SCC(=O)NC4CCCC4)s3)CC2=O)cc1 (centres undefined)	i	-6	3	2	-10	-10	6	6
Cc1nc2c(cc1C#N)C(=O)c1ccccc1-2	i	x	-2	-2	8	-14	-6	-11
CC(=O)c1c(C)[nH]c(C(=O)N2CCc3ccccc3C2)c1C	i	0	1	3	-2	-6	8	-100
Cc1cc(NC(=O)c2cccc(S(=O)(=O)N3CCCCCC3)c2)no1	i	-6	-1	-1	-1	4	-2	-7
O=C(Nc1ccc2c(c1)oc1ccccc12)c1ccc2c(c1)OCO2	i	6	4	3	6	-4	25	-84
COc1cccc(CN2CCNC(=O)C2CC(=O)NCCN2CCOCC2)c1OC (centres undefined)	x	10	-1	3	-2	1	-4	-24
COc1cc(/C=N/NC(=O)C(=O)NCC2CCCO2)ccc1OCC(=O)N1CCOCC1 (centres undefined)	i	x	-1	-1	-13	-2	-9	2
CN(CC(=O)Nc1ccc(N2CCOCC2)cc1)C(=O)CCc1cc(C(C)(C)C)c(O)c(C(C)(C)C)c1	x	-13	-2	-6	x	x	5	x
OC(c1ccccc1)c1ncc(-c2ccccc2Cl)[nH]1 (centres undefined)	x	-28	-1	5	x	x	x	-24
COc1ccc(N(CC(=O)NCc2ccc3c(c2)OCO3)C(=O)c2csnn2)cc1	i	-13	-2	2	5	-10	x	-7
Cc1c(Cl)c(C(=O)N2CCCc3ccccc32)nn1C	i	-14	-6	0	2	6	-11	-1
CCSc1ccccc1C(=O)NCc1ccco1	i	-4	-1	3	-2	-1	2	-42
COc1ccc(C(=O)Nc2ccc(C)c(S(=O)(=O)N3CCOCC3)c2)cc1S(=O)(=O)N1CCCC1	x	-1	-3	-1	x	x	x	38
C=CCSc1nnc(NC(=O)C23CC4CC(CC(NC(C)=O)(C4)C2)C3)s1	i	-13	2	0	4	-2	-5	-6
CC(=O)NC1(NC(C)=O)CCN(C)C(c2ccccc2)C1C (centres undefined)	i	x	-4	2	-4	-3	10	x
O=C(NCc1ccccc1)C(Cc1ccccc1)NS(=O)(=O)c1cccc2nsnc12 (centres undefined)	i	x	5	4	-5	6	-13	13
COc1ccc(C2CC(c3ccc([N+](=O)[O-])cc3)=NN2C(C)=O)cc1 (centres undefined)	i	-18	4	-2	2	-5	-18	-26
COc1cc(/C=N/NS(=O)(=O)c2ccccc2)ccc1OS(=O)(=O)c1ccc(C)cc1	i	x	-4	-1	-4	4	-2	-7
CCOC(=O)c1oc2ccccc2c1COC(=O)CNC(=O)c1cccc(C)c1	x	-6	3	6	1	-3	0	x
CCN(CC)S(=O)(=O)c1ccc2c(c1)c(=O)c(C(=O)N1CCc3ccccc3C1)cn2C	i	-3	-1	2	5	1	4	-29
COC1=CCC2([N+](=O)[O-])CN(CC(=O)O)CC1([N+](=O)[O-])C2 (centres undefined)	i	x	6	6	-14	-12	-3	-21
CCCn1cnnc1CNC(=O)C1CCC(=O)N(CCc2cccc(F)c2)C1 (centres undefined)	i	-13	1	3	2	-2	-3	-5
Cc1ccc2c(c1)COc1c3ccc(C(=O)N[C@@H](C)CO)cc3nn1-2	i	16	8	-1	-3	5	-3	-158
CC(C)Cc1cc(C(=O)Nc2cc(Br)ccc2O)no1	i	9	10	-11	0	-11	61	-12
Cc1c2c(nc3ccccc13)CCC(C)C2 (centres undefined)	i	x	0	-1	2	6	-3	-2
CCOC(=O)c1ccc(S(=O)(=O)NNS(=O)(=O)c2ccc(C)cc2)cc1	i	-13	-1	3	1	7	-3	4
Cc1cc(OC(C)C(=O)N2CCN(c3ccc(F)cc3)CC2)c2c(C)c(C)c(=O)oc2c1 (centres undefined)	i	9	5	-8	-7	-3	4	4
CCOc1ccccc1NC(=O)NCc1cccnc1	i	x	-2	3	3	1	x	1
O=C(CCl)Nc1cccc(S(=O)(=O)NC2=NCCCCC2)c1	x	0	6	-1	x	x	61	6
Cc1ccc(CNC(=O)Nc2ccc(F)cc2)n1C	i	-3	-3	4	6	7	6	7
N#CC(c1ccc(Cl)nn1)c1ccc(Cl)cc1Cl (centres undefined)	i	-6	0	3	5	9	3	x
COc1ccc(N/C=C/C(=O)c2ccc3c(c2)OCO3)cc1OC	i	x	9	9	3	-8	10	21
CCC1CCCCN1C(=S)NC(=O)c1cccs1 (centres undefined)	i	x	6	10	-3	-3	x	9
COCCNc1nc2c(c(=O)n(Cc3cccc(Cl)c3)c(=O)n2C)n1C	i	0	0	1	-5	1	-12	10
CCOc1ccccc1NC(=O)C(OC(=O)c1cnccn1)c1ccccc1 (centres undefined)	i	-3	0	0	x	x	-9	x
CCn1c(CN2CCN(CCO)CC2)nc2ccccc21	i	x	4	5	-2	2	-6	-56
O=c1c2ccccc2sc2ccc(Cl)cc12	i	x	7	10	8	9	x	-42
CCc1ccc(-n2c(SCC(=O)N3CCC(C(=O)O)CC3)nnc2-c2ccncc2)cc1	i	-15	1	0	-3	19	-9	-2
CC(=O)NC(=O)COC(=O)/C=C/c1c(C)nn(Cc2c(Cl)cccc2Cl)c1Cl	i	1	11	0	-7	14	-10	x
Cc1ccc(C(=O)Nc2ncccc2O)cc1S(=O)(=O)N1CCCCC1	i	-12	4	1	x	x	7	x
CCOc1ccccc1C(=O)N[C@H](C(=O)NNC(=O)c1cccs1)C(C)C	x	-3	-1	0	x	x	-11	x
Cc1nonc1CC(=O)N1CCCC(C(=O)c2ccc(Cl)cc2)C1 (centres undefined)	i	x	-5	1	-3	-4	-2	-23
CCOC(=O)C1(CCOc2ccccc2)CCN(Cc2ccc(OC)cc2)CC1	i	11	2	-10	x	x	35	27
COc1ccc(CNC(=O)[C@@H]2CC=C[C@@H]3CCN(Cc4ccccc4)C(=O)[C@@H]32)cc1	i	-20	0	0	x	x	-9	22
CC1CCCC(C)N1C(=O)CSc1nc2ccccc2s1 (centres undefined)	i	-17	-3	-6	-5	-13	-7	19
FC(F)Oc1ccc(NC(=S)Nn2cnnc2)cc1	i	-8	-2	1	5	3	x	1
